FGF22 binding: binders of human FGF22 protein, primary screen, FGF22 synaptogenesis inhibitor project, biophysical, thermal shift, single point; AID 651658, 2012; Fibroblast growth factor 22 (Homo sapiens), Q9HCT0; 1.5% of 340,000 active; recombinant FGF22 thermal shift, SYPRO orange fluorescence; percent of sucrose octasulfate shift, DMSO zero; calls only at 9.99 µM;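 active = melting point raised past a set limit in the mean and every replicate; inconclusive = no clear call; three in four hits are not shown here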
Vif TR-FRET: inhibitors of Vif binding to APOBEC3G peptide, primary screen, biochemical, TR-FRET, GST-Vif 1-94, biotin-A3G peptide, dose response retest (AID 1117319); TR-FRET GST-Vif / biotin-A3G peptide binding; higher % means a stronger effect; test concentration not given here; strong numbers were not always called active; inhibition, %, or IC50 in µM where a hit was titrated; 0.57% of 260,000 active;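 active = above the screen mean plus three standard deviations and confirmed in dose response; inconclusive = results disagree or hit not tested in dose response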;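 also: Vif residues 1-94 fused to GST binding biotinylated APOBEC3G peptide 110-148; 0% = full assay without inhibitor and 100% = GST in place of GST-Vif; retest series ran down from 100 µM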
E coli growth: E. coli growth inhibition, primary screen, OD600; 0.21% of 330,000 active; OD600 absorbance (concentration not given with the values); AID 1053175, 2014; Escherichia coli growth, 23 h; active compounds read low;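 active = OD600 absorbance below the run mean of sample wells minus 3.6 SD, in any replicate, cut at about 0.56 in these data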;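 also: stock transfer was 300 nL into about 60 µL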
AF4-AF9 inh: inhibitors of AF4 peptide binding to AF9, primary screen, biochemical, AlphaScreen, biotin-AF4 peptide, FLAG-AF9, single point | Protein AF-9 (Homo sapiens), P42568 | inhibition, % at 10 µM | 0.47% of 350,000 active;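 active = every replicate reaching a set inhibition limit, whatever the replicate mean, cut at about 25% in these data; inconclusive = mean inhibition reaches that limit but some replicates miss it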;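 also: 0% = plate neutral control median and 100% = total signal loss; the record names both 10 and 1 µM as test concentration; the first replicate is given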
Target sequence (P42568 whole entry, looked up): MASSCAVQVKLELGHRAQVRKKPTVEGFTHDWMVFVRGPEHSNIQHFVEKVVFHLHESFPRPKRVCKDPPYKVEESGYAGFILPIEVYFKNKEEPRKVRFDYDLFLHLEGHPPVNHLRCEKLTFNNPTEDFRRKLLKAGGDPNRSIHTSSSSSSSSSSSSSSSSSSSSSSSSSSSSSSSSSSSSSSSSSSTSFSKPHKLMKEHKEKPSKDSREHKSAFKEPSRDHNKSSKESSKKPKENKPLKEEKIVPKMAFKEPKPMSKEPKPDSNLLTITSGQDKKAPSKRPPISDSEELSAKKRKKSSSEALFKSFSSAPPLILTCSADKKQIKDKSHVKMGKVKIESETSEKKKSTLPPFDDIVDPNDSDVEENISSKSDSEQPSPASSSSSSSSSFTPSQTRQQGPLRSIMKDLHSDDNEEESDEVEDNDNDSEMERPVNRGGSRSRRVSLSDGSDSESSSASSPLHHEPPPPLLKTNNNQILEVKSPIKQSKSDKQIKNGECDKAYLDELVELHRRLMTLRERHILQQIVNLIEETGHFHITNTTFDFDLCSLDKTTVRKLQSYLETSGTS
HNF4A DNA FP: change in binding of human HNF4A to DNA, primary screen, biochemical, fluorescence polarization, FITC-DNA; Hepatocyte nuclear factor 4-alpha (Homo sapiens), P41235; AID 1224865, 2016; 1 h; activity change, % at 10 µM; 0.3% of 360,000 active; in the data active = activity change above about 30%, passing the limit was not always enough;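 also: controls were the assay level and a saturating level of protein; the project sought stronger binding though the title names inhibitors; some compounds called inactive have numbers as strong as hits; positive values seem to mean higher polarization but the record does not say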
Target sequence (P41235 whole entry, looked up): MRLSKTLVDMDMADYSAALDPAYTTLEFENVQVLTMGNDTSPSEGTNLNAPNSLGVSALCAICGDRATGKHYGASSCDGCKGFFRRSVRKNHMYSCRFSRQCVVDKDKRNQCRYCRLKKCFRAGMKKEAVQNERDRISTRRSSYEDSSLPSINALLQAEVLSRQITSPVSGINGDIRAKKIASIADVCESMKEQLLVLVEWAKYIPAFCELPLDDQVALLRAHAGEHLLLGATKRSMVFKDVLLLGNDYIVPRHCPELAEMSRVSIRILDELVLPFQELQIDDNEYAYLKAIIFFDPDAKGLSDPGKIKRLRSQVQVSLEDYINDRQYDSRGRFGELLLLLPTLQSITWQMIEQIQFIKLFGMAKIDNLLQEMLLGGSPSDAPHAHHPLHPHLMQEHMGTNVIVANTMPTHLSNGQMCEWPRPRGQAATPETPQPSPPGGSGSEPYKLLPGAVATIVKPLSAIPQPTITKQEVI
RanGTP-Imp inh: inhibitors of RanGTP-importin-beta interaction, primary screen, biochemical, FRET, CFP-Ran, YFP-importin-beta, homogeneous; Ran GTPase (GTP-bound) - importin-beta complex; cell-free CFP-Ran/YFP-importin-beta FRET ratio; inhibition, % (no concentration beside the values); 1.1% of 300,000 active; AID 2216, 2009;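 active = most replicates above 15%; inconclusive = exactly half above 15%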;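 also: 0% = DMSO wells and 100% = Ran loaded with GDP instead of GTP; wells of about 40 µL received 100 nL stock; the first replicate is given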
UCH37 DUB inh: inhibitors of human UCH37 deubiquitinase, primary screen, biochemical, Ub-AMC cleavage, fluorescence. Ubiquitin carboxyl-terminal hydrolase isozyme L5 (Homo sapiens), Q9Y5K5. purified proteasome/UCH37. inhibition, % (concentration not given with the values). 0.33% of 330,000 active. AID 588478, 2011;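 active = mean of two replicates above 20%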;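 also: 0% = compound-free wells with enzyme and 100% = wells lacking proteasome; stock transfer was 100 nL into about 20 µL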
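System: Proteasome-associated human UCH37 deubiquitinase; Input: 0.15 nM proteasome in added enzyme buffer; Also added: Ub-AMC substrate from 1 µM stock; Incubation: 30 min compound-proteasome preincubation then 25 min substrate reaction, room temperature; Detection: fluorescence, ex 355 nm, em 460 nm; Read-out: % inhibition of Ub-AMC cleavage fluorescence; Benchmarks: no-proteasome and no-compound wells.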
The depositor's hits bear a star; i = inactive; ? = inconclusive; . = not tested or not shown; & = joins results of further samples. This is a subset (hit frequency here may not be typical).

SMILES | FGF22 binding | Vif TR-FRET | E coli growth | AF4-AF9 inh | HNF4A DNA FP | RanGTP-Imp inh | UCH37 DUB inh
CC(C)c1nnc(NC(=O)C2CCCN(C(=O)Nc3ccc(F)cc3)C2)s1 (stereo unspecified) | . | . | 0.667 | -1.5 | 2.6 | 1.2 | 3.8
FC(F)(F)c1ccc(/C=N/n2c(C3CCCCC3)n[nH]c2=S)cc1 | i | -5.9% | . | 4.6 | 0.8 | 3.0 | .
Cc1c(Cl)cccc1NC(=O)c1cccc(NC(=O)CCC(=O)O)c1 | . | 0.4% | 0.763 | . | 11.9 | 2.9 | 4.4
Cn1[nH]cc(C=NC(N)=O)c1=O | i | . | . | -1.6 | 1.8 | . | .
Cc1noc(C)c1S(=O)(=O)Nc1ccc2c(c1)C(=O)N([C@H](C)CO)C[C@H](C)[C@@H](CN(C)C(=O)Nc1ccc3c(c1)OCO3)O2 | i | 3.5% | 0.708 | 1.0 | 2.9 | . | -0.3
CCCC(=O)N1CCN(c2nc(CC(C)C)c3c(c2C#N)CCC3)CC1 | . | -1.6% | . | . | -0.9 | 1.0 | .
CCCC(=O)OCCn1c(Br)nc2c1c(=O)[nH]c(=O)n2C | . | 16.5% | 0.701 | . | 0.9 | 3.1 | -1.6
COC(=O)c1sccc1NC(=O)c1ccc(OC)cc1 | . | -12.8% | 0.749 | . | 3.4 | 2.9 | -1.1
CCN(CC)C(=O)C1CCCN(Cc2nc(-c3cnccn3)no2)C1 (stereo unspecified) | . | -7.3% | 0.713 | -1.2 | 3.3 | 3.5 | 1.7
Cc1ccccc1Nc1sc(C(=O)Nc2cccc(Cl)c2)c(N)c1C(N)=O | i | 12.4% | 0.706 | 2.6 | -1.1 | -2.0 | 6.4
Cc1cc(Br)ccc1NS(=O)(=O)c1c(C)[nH]c(=O)[nH]c1=O | i | -4.8% | 0.681 | -2.6 | 2.0 | -5.0 | -1.7
COc1ccc(NC(=O)Cn2nnc(C(=O)NCc3cccs3)c2N)cc1Cl | i | . | 0.655 | -1.6 | 0.1 | 2.1 | 3.7
C=C(C)c1cccc(C(C)(C)NC(=O)N2CCN(CC)CC2)c1 | . | 12.5% | 0.724 | . | -2.3 | 1.3 | 2.5
O=C(c1ccc2c(c1)OCO2)N1CCN(c2ccccc2)CC1 | . | -0.4% | 0.778 | . | 3.5 | -2.6 | 4.6
CCOCCCNC(=O)C1(O)c2ccccc2NC(=O)N1c1ccc(Cl)cc1 (stereo unspecified) | i | 0.9% | 0.653 | -4.8 | 5.7 | -1.2 | 1.3
COc1ccc(NC(=O)CSc2nnc(CNC(=O)c3ccco3)o2)c(OC)c1 | . | 0.9% | 0.728 | . | 1.5 | 5.3 | 0.9
c1ccc(Nc2cc(Nc3ccccc3)[nH]n2)cc1 | . | -0.9% | 0.649 | . | 1.4 | -2.2 | 3.0
CC(=O)N/C(=C/c1ccc2c(c1)OCO2)C(=O)NCCCO | . | -1.0% | . | . | -0.1 | 1.3 | 0.8
CCCc1nn(C)c(C(=O)Nc2ccc(C(C)(C)C)cc2)c1Cl | . | 0.7% | 0.647 | . | 0.7 | ? | 1.0
O=S(=O)(Nc1ccccc1)c1ccc2c(c1)CCO2 | i | -2.1% | . | 47.8* | 3.4 | 0.5 | .
CN1CCN(C(=O)/C(=C/c2ccc(N(C)C)cc2)NC(=O)c2ccccc2)CC1 | i | . | 0.674 | 2.6 | -1.2 | -1.2 | 7.6
COc1ccc(CC(=O)OCC(=O)NCc2ccc3c(c2)OCO3)cc1OC | i | -4.6% | 0.733 | -0.3 | 4.2 | . | 1.0
CC(Cl)C(=O)Nc1cc(C(F)(F)F)ccc1N1CCOCC1 (stereo unspecified) | i | -11.0% | 0.7 | -1.1 | 3.1 | -0.1 | 0.4
CCOC(=O)c1ccc(NC(=O)NC2CCN(CC(=O)NCc3ccc4c(c3)OCO4)CC2)cc1 | . | 2.5% | 0.662 | . | 1.1 | 2.4 | 0.8
COCCNC(=O)c1ccc(CS(=O)(=O)c2ccc(OC)cc2)o1 | i | 7.5% | 0.687 | -1.0 | -2.1 | -1.2 | 0.6
COC(=O)Nc1nn(-c2ccc(C)cc2)c(=O)c(C#N)c1C | i | . | 0.73 | 0.8 | -2.1 | 0.7 | 0.6
CCCOc1ccc(N2C(=O)CC(S/C(N)=N/N=C(\C)c3cccs3)C2=O)cc1 (stereo unspecified) | . | 0.7% | . | . | 1.1 | 6.8 | .
Cc1ccc(-c2nn(-c3cccc(F)c3)cc2CN(Cc2nccn2C)C(C)C)o1 | i | 2.1% | 0.717 | 7.5 | -0.1 | 6.9 | -0.6
CC(NC(=O)CN1C(=O)NC(C)(c2cccc3ccccc23)C1=O)c1ccccc1 (stereo unspecified) | . | . | 0.679 | -7.2 | -2.8 | 4.1 | 3.2
CCN(CC)CCN(CC(=O)N(C1CCCCC1)C1CCCCC1)C(=O)c1ccco1 | i | 6.3% | 0.679 | 0.7 | -0.7 | 1.1 | 3.8
NC(=O)NC(Cc1ccccc1)C(=O)N1CCN(S(=O)(=O)c2ccc(Cl)cc2)CC1 (stereo unspecified) | i | -6.4% | 0.686 | 1.5 | -2.1 | . | 2.8
O=C(CSc1ccc2ccccc2n1)NCCC1=CCCCC1 | . | -14.4% | 0.675 | . | -1.5 | 5.6 | 4.2
Cc1nnc(NC(=O)CSc2nnc(CCNC(=O)c3ccccc3F)n2C)s1 | i | . | 0.6 | 42.3* | -0.2 | 2.7 | 0.2
COc1cccc(-c2cnc(C(O)c3ccc(CN4CCCC4)cc3)[nH]2)c1 (stereo unspecified) | i | . | . | 7.5 | 0.6 | . | .
CCc1cccc(CC)c1NC(=O)c1cc(CN2C(=O)c3ccccc3C2=O)ccc1OC | i | . | 0.702 | -14.0 | 0.8 | -4.7 | 1.5
CCNC(=O)C12CCC(C)(c3nc4cc(C)c(C)cc4nc31)C2(C)C (stereo unspecified) | i | 7.0% | 0.661 | -0.2 | -0.7 | 1.4 | 3.9
COc1ccc(NC(C)=O)cc1CNC(=O)COc1ccccc1C(=O)Nc1cccc(C)c1C | i | . | 0.707 | 1.3 | 0.1 | 2.4 | 0.5
Cc1nc2ccc(C(=O)N3c4ccccc4N=C(c4ccc(C(F)(F)F)cc4)C3C(=O)NC(C)(C)C)cc2[nH]1 (stereo unspecified) | i | . | . | -0.8 | 7.1 | . | .
Nc1ccc(SCc2nc3cccc4c3n2CCC4)cc1 | i | . | . | 3.7 | -0.9 | 2.2 | .
Cc1cc(Br)c(NC(=O)c2ccccc2[N+](=O)[O-])cc1C | i | 27.1% | 0.685 | -3.7 | -2.2 | -3.0 | -0.2
COCCN(C(=O)CNC(=O)c1ccco1)C(C(=O)NC1CCCC1)c1cccs1 (stereo unspecified) | . | ? | 0.768 | . | -2.1 | -3.1 | 4.0
CCc1cccc(OCC(O)Cn2c(N3CCCCC3)nc3c2c(=O)[nH]c(=O)n3C)c1 (stereo unspecified) | i | . | 0.718 | -1.5 | -0.7 | -1.6 | 2.4
C[C@@H](O)C1NC(=O)[C@H](CCCCN)NC(=O)c2cc([N+](=O)[O-])cc(I)c2OCC[C@@H](C(N)=O)NC1=O (stereo partly specified) | i | 4.5% | . | 8.3 | 1.8 | -1.0 | 2.7
Cc1nn(Cc2ccc(F)cc2)c(C)c1NC(=O)CCCn1nc([N+](=O)[O-])cc1C | i | . | 0.674 | 7.6 | -1.9 | 0.0 | 4.1
COc1cc2ncnc(Nc3ccc4c(c3)OCO4)c2cc1OC | i | . | 0.664 | -12.1 | -2.5 | 2.7 | 3.8
CC(=O)c1ccc(N2CCN(C(=S)Nc3cc(C)ccc3C)CC2)cc1 | i | . | 0.741 | 1.8 | -2.2 | 1.3 | 4.1
CCOC(=O)c1ccc(Oc2nc(NC(C)(C)C)nc(N(C)C)n2)cc1 | . | -0.8% | 0.711 | . | 0.8 | 2.8 | 0.2
COc1ccc(C2=C(SC)CC2=NC(C)(C)C)cc1 | . | . | 0.659 | . | 3.6 | -2.0 | 4.9
Cc1ccc2ccc[n+](Cc3ccccc3)c2c1 | i | . | 0.645 | -1.2 | 9.5 | -1.9 | -7.4
CC(=O)c1cccc(NC(=O)C2CC(=O)N(c3ccc4c(c3)OCCO4)C2)c1 (stereo unspecified) | i | -6.4% | 0.707 | -2.9 | 2.5 | . | 1.2
CCN(CC)Cc1c(C(=O)N/N=C/c2cccnc2)nnn1-c1nonc1N | i | . | . | -4.5 | -1.3 | 3.7 | .
O=C(O)CCCC(=O)N1CCN(c2ncccn2)CC1 | i | -4.9% | 0.699 | . | -2.0 | 7.1 | 2.0
O=C(Nc1ccc(N2CCN(C(=O)c3ccc(Cl)cc3)CC2)cc1)c1ccc(Br)o1 | . | 6.2%&10.6% | 0.702 | . | -0.8 | 3.5 | 0.5
O=C1CN(C(=O)COC(=O)c2ccc(Cl)cc2)c2ccccc2N1 | i | 0.1% | 0.692 | -0.2 | 3.1 | . | 3.8
CCN=C1SC(CC(=O)Nc2ccc(C(F)(F)F)cc2)C(=O)N1CC (stereo unspecified) | . | 4.9% | 0.674 | . | -3.0 | -4.8 | 3.8
Clc1ccc(-c2cnc3ccccc3n2)cc1 | . | -12.8% | 0.672 | . | -1.6 | 0.7 | 1.9
NS(=O)(=O)c1ccc(CCNC(=O)CNCCc2ccc(C(F)(F)F)cc2)cc1 | i | -3.6% | 0.648 | 0.6 | 1.3 | -0.8 | 1.9
Cc1ccc(C(=O)Nc2c(-c3ccccc3)[nH][nH]c2=O)cc1 | i | . | . | 0.1 | 4.7 | . | .
Cc1cccc(Oc2ccc3c(c2)cc(C(=O)O)n3C)c1 | i | 28.8% | 0.647 | 4.7 | -0.6 | -1.3 | -4.0
Cc1ccc2[nH]c(C)c(/C=C/c3cc[n+](C)cc3)c2c1 | i | . | 0.616 | 7.2 | 166.5 | -128.1 | 21.7*

Among those listed so far, 2 contain a cyano group.
SMILES | FGF22 binding | Vif TR-FRET | E coli growth | AF4-AF9 inh | HNF4A DNA FP | RanGTP-Imp inh | UCH37 DUB inh
CCCC(=O)N1CCN(c2nc(CC(C)C)c3c(c2C#N)CCC3)CC1 | . | -1.6% | . | . | -0.9 | 1.0 | .
COC(=O)Nc1nn(-c2ccc(C)cc2)c(=O)c(C#N)c1C | i | . | 0.73 | 0.8 | -2.1 | 0.7 | 0.6

Going on with the list:
SMILES | FGF22 binding | Vif TR-FRET | E coli growth | AF4-AF9 inh | HNF4A DNA FP | RanGTP-Imp inh | UCH37 DUB inh
Cc1ccccc1NS(=O)(=O)c1ccc(C)c(NS(C)(=O)=O)c1C | i | -9.0% | 0.66 | -0.2 | 2.7 | 3.0 | -1.3
COCCn1c(SCC(=O)c2c(N)n(C3CC3)c(=O)[nH]c2=O)nc2ccccc21 | i | . | 0.699 | -4.8 | 0.4 | . | 2.3
Cc1ccc(-n2nc3c(c2NC(=O)CC(C)C)CS(=O)(=O)C3)c(C)c1 | i | -2.3% | 0.625 | 0.9 | -1.1 | -4.3 | 0.9
CCNc1nc(SC)nc(N(C#N)CC(=O)OC)n1 | i | -1.8% | 0.649 | -1.8 | -4.1 | -0.9 | 0.5
